# Compound activity (PubChem)
# gsp antagonist: antagonizes gsp, the McCune-Albright syndrome mutation; AID 624288; Potency, µM (top dose mostly 76.9 µM), without a hit: at the highest dose activity change, negative = inhibition, hits mostly inhibitors; 340,000 tested, 0.4% active; gsp-mutant cells, cAMP HTRF, 30 min; control for the full effect not named in the record; active = falling curve of any shape with a large fitted effect; inconclusive = falling curve, mostly with a smaller effect; inactive = flat or rising curve; cell line not stated here;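 further: intracellular cAMP measured with PDE inhibitor Ro 20-1724 present during compound exposure; potency means the concentration at half of the fitted maximal effect; on the % scale 0 is the no-effect control and ±100 the full control effect; nearly all actives have a fitted effect of over 65% in size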
#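 Cells in G418 medium, seeded 16-24 h, 37C; buffer exchange to DPBS + 1 mM CaCl2, 0.5 mM MgCl2, 0.05% BSA; cpds in DMSO + […] (300 uM stock), 30 min 37C; HTRF cAMP detection.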
# gsp agonist: agonists of gsp mutant (McCune-Albright syndrome). gsp mutant cells, cAMP HTRF, 30 min; control for the full effect not named in the record. Potency, µM (doses to about 76.9 µM), for the others: at the highest dose activation (cAMP increase), actives largely listed as activators. 340,000 tested, 0.13% active; active = well fitted activation curve with a large enough effect; inconclusive = small, poorly fitted or top-dose-only effect, or another doubt; inactive = no such curve, though single readings can be large or run the other way; cell line not stated here;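 further: phosphodiesterase inhibitor Ro 20-1724 added with compounds to block cAMP breakdown; potency means the concentration at half of the fitted maximal effect; nearly all actives have a fitted effect of over 60% in size; about a fifth of the inactives were tested at one dose only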
#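 Cells in DMEM/10% FBS with G418 were pretreated with compounds in DMSO plus […] (300 uM stock) for 30 min at 37C. cAMP was measured by HTRF (cAMP-d2 plus anti-cAMP antibody-K) after 30 min at room temperature.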
# Menin MLL FP FL: displaces fluorescein MLL peptide from human menin; Fluorescence polarization, fluorescein-MLL peptide displacement from menin; FP activity change, % at 61.4 µM; 290,000 tested, under 10 active; inconclusive = falling polarisation curve, or a change in total fluorescence; inactive = total fluorescence flat and polarisation flat or rising; no compound was filed as active; the % refers to the polarisation; negative = inhibition;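 further: % of control where 0% means no effect; inhibitors lower the polarisation; unlabelled MLL peptide was the positive control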
# ClpP mod: qHTS Assay for Activators of ClpP; ATP-dependent Clp protease proteolytic subunit (Bacillus subtilis (strain 168)), P80244; purified B. subtilis ClpP, FRET peptide cleavage, 20 min; Potency, µM (titrated, usually from 57.5 µM), for inactives: at the top dose activity change, negative = active; 340,000 tested, 1.9% active; AID 651965, 2013; active = well fitted falling curve with a large enough effect; inconclusive = small, poorly fitted or top-dose-only effect; inactive = no such curve, though single readings can be large or run the other way; further: potency means the concentration at half of the fitted maximal effect; the source files actives as falling curves though it sought activators and does not explain the sign; nearly all actives have a fitted effect of over 65% in size; many hits overshoot -100%
# Target sequence (P80244 whole entry, looked up): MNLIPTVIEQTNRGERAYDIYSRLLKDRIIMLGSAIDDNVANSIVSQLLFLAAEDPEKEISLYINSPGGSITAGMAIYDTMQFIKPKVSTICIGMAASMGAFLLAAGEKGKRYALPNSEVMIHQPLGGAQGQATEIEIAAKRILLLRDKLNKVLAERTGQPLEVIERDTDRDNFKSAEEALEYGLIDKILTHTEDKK
#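 Buffer: 100 mM Tris/HCl pH8, 100 mM KCl, 0.05% low protease BSA, 2.5% glycerol, 0.01% Tween-20. ClpP 10 microg/mL final; 20 min RT; delta FRET normalized to ADEP and DMSO controls.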
# TRPML1 agonist: agonists of human TRPML1 channel; Q9GZU1; TRPML1-expressing cells, Ca2+ dye fluorescence, FDSS; host cell line not named in the record; reference of the full effect not given here; activation, % (no concentration beside the values); 410,000 tested, 0.12% active; AID 624414; in the data active = activation above about 50%; inconclusive = about 30% to 50%; inactive = below about 30%; further: 0% is about no effect; the text of the record puts the active cut at 80%
# Target sequence (Q9GZU1 whole entry, looked up): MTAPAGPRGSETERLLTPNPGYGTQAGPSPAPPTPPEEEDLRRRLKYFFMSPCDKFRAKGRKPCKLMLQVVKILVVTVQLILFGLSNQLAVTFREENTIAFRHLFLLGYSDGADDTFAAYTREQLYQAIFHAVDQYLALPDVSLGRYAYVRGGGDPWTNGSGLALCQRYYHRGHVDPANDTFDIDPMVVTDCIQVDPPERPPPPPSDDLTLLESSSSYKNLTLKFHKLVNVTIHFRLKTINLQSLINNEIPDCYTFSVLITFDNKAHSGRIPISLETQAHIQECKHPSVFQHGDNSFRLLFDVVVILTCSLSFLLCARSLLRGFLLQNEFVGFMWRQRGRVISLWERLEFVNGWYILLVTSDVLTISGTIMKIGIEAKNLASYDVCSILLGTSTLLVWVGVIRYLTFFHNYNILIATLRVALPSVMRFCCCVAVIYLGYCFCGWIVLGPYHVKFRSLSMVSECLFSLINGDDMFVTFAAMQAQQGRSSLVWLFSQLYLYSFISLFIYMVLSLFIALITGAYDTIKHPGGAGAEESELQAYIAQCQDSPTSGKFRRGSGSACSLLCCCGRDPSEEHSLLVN
#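 Calcium fluorescence on an FDSS kinetic reader gave the read-out. Tet-induced TRPML1-DL cells were plated overnight, dye-loaded (Ca8 with quencher, 45-90 min, room temperature, dark), then read 110 s after compound addition, and again 110 s after 4uM final 54-4 (EC80).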
# TRPML1 blocker: human mucolipin-1 channel inhibition | 390,000 tested, 0.02% active | TRPML1-inducible cells, Ca2+ dye fluorescence, FDSS; stronger effect = lower value; inhibition of EC80 agonist-evoked calcium signal | Q9GZU1 | activity change, negative = inhibition, % (concentration not given with the values); in the data active means activity change below about -50%; inconclusive means about -30% to -50%; inactive means above about -30%;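 further: stimulus is agonist 54-4 at its EC80 concentration; on the % scale 0 is the no-effect control and ±100 the full control effect; compound concentration not given in the record; the text of the record puts the active cut at -80%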
#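 Tet-induced TRPML1-DL cells loaded with Ca8 no-wash calcium dye were read kinetically on FDSS. Compound addition was followed by EC80 agonist 54-4 (4 uM final); inhibition was read over 110 s.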
# Active calls of the source: *; ? = inconclusive; . = no result given; & = joins results of further samples; [ ] = dose if it differs, or a comment.
Structure	gsp antagonist	gsp agonist	Menin MLL FP FL	ClpP mod	TRPML1 agonist	TRPML1 blocker
CN(CC(=O)Nc1ccc(N2CCOCC2)cc1)C(=O)CC(c1ccccc1)c1ccccc1	-21%	5%[15.4 µM]	3.2	-4.0%	0.6	5
CCC1CCc2c(c3ccccc3[nH]c2=O)O1 (configuration not stated)	-5%	-33%	3.1	-2.0%	-1.4	9
Fc1ccc(C2=CC(c3ccc(F)cc3)n3c(nc4ccccc43)N2)cc1 (configuration not stated)	.	.	.	1.6%	9.5	2
Cc1c(OCC(=O)NCc2ccncc2)ccc2c3c(c(=O)oc12)CCCC3	-16%	0%	.	3.7%	-0.3	51
CCOCCCNC(=O)c1cc2c(=O)[nH]c3ccccc3c2n1C	.	.	.	3.8%	1.1	11
Cc1cc(C)cc(CSCC(=O)NN=C2CCCCCC2)c1	6%	0%	-0.8	1.0%	0.3	5
COCCCNc1ncnc2c1nnn2C	.	.	.	0.6%	0.2	17
C=CCn1c(=O)c2c3c(sc2n2c(Nc4ccc(C(=O)OCC)cc4)nnc12)CCCC3	-6%	24%	3.2	-11%	1.3	-8
CCOC(=O)COn1c(SCC(=O)OCC)nc2ccccc2c1=O	-17%	?	4.7	-3.5%	0.9	1
CCOC(=O)C1C(=O)OC(C)(C)C1C(C)C(=O)c1ccccc1 (configuration not stated)	-1%	18%	-2.6	1.9%	0.5	-8
Cc1nnc(NC(=O)c2ccc3c(c2)C(=O)N(CCC(C)C)C3=O)s1	-7%	-46%[inhibitor]	-6.2	-0.6%	3.0	32
O=C(NCCNc1ccc([N+](=O)[O-])cc1)c1cc(F)c(F)cc1Cl	-7%	-7%	.	-0.4%	0.7	8
O=C(CNC(=O)c1ccc(-c2ccccc2)cc1)OCc1c(F)cccc1Cl	12%	43%	2.6	-0.7%	3.6	-7
CCCCn1c(N)c(N(CCOC)C(=O)c2ccc(-c3ccccc3)cc2)c(=O)[nH]c1=O	2%	?	.	-4.0%	0.9	-15
O=C(O)c1cccc(S(=O)(=O)N2CCCC(c3nc4c(nnn4Cc4ccccc4Cl)c(=O)[nH]3)C2)c1 (configuration not stated)	-4%	?	1.3	.	0.3	0
O=C(Cc1cccs1)N(c1ccc(Cl)cc1)C1C=CS(=O)(=O)C1 (configuration not stated)	-9%	-14%	-0.6	-0.9%	0.1	6
CCCNC(=O)c1ccccc1NC(=O)COc1ccc(OC)cc1	5%	0%	4.4	-3.3%	0.0	2
CC(C)C(=O)Nc1nnc(SCC(=O)Nc2ccc3c(c2)OCCO3)s1	2%	-5%[15.4 µM]	-1.5	.	0.3	21
CCOc1ccc(CNS(=O)(=O)c2c(C)nc3scc(C)n3c2=O)cc1OC	-2%	?	-4.3	.	-0.5	-22
CCOC(=O)c1cnc(SCC(=O)OCC(=O)NC2CCS(=O)(=O)C2)nc1N (configuration not stated)	-13%	-26%	.	-4.2%	0.4	8
CC1(c2nnc(Cc3ccccc3)o2)CC(c2ccc(OC(F)(F)F)cc2)=NO1 (configuration not stated)	-7%	-5%	.	-0.5%	0.8	-7
CCOC(=O)COc1ccc(C)cc1C(=O)c1ccn2nc(-c3ccc(C)cc3)cc2n1	.	.	.	-15%	-0.1	10
COc1ccc(C2/C(=C(/O)c3ccccc3)C(=O)C(=O)N2c2ccccn2)cc1 (configuration not stated)	-14%	17%	2.1	3.4%	0.6	32
Cn1cnnc1SCC(=O)Nc1ccc2c(c1)CCC2	-1%	?	-0.3	-0.3%	-0.3	-5
COc1cc(/C=C2/C(=O)NN(c3ccc(F)cc3)C2=O)cc([N+](=O)[O-])c1O	-20%	-7%[15.4 µM]	0.1	.	1.2	36
COc1ccc(OC)c(NC(=O)C2CCCN(S(=O)(=O)c3c(C)nn(C)c3C)C2)c1 (configuration not stated)	-12%	?	.	2.0%&1.9%	-0.1&-0.9	17&26
CCC1(c2ccccc2)NC(=S)N(c2cccc(C)c2C)N1 (configuration not stated)	9%	-1%[15.4 µM]	3.5	2.1%	-1.2	-6
CCc1ccc(NCCC(=O)c2ccc(Br)cc2)cc1	10%	-7%	-0.9	-1.3%	0.8	13
Cc1ccc2c(c1)c1c(c(=O)n(Cc3ccccc3)c(=O)n1CC(=O)Nc1ccccc1F)n2C	.	.	.	4.0%	0.0	-1
CC1(C)OC(=O)N(NCc2ccccc2)C1(C)O (configuration not stated)	3%	-37%[inhibitor]	-0.1	1.0%	.	.
C=CCNC(=S)Nc1ccc(Cl)cc1	-3%	15%[15.4 µM]	4.3	.	2.5	11
CCN(CC)S(=O)(=O)c1cc(C(=O)O)ccc1OC	16%	-9%[15.4 µM]	-2.4	.	-0.3	-12
CCSc1nnc(NC(=O)C(C(F)(F)F)C(F)(F)F)s1	0%	-55%[inhibitor]	7.8	0.8%	-0.7	3
Cc1cccn2c(=O)c3cc(C#N)c(=O)n(-c4nnc(SCc5ccccc5F)s4)c3nc12	.	.	.	4.2%	5.0	-2
CN1CCN(C2=Cc3cc(Cl)ccc3Sc3cc(F)ccc32)CC1	23%	8%	-1.0	-0.8%	1.3	48
Cc1cccc(-n2nnc(C(=O)NCc3ccccn3)c2N)c1	3%	-29%	-0.5	0.0%	3.9	22
Cc1c(N2CCCC2)cc2c(c1NC(=O)c1ccccc1Cl)C(C)(C)CC2(C)C	-25%	9%	13	3.1%	-0.8	-2
CC(=O)Nc1ccc(S(=O)(=O)Nc2cccc(S(=O)(=O)N(C)c3ccccc3)c2)cc1	6%	-6%	.	-0.4%	-1.0	-6
CCCCCOC(=O)c1ccc(NC(=O)c2cccc(NC(=O)c3ccccc3C(=O)O)c2)cc1	-10%	-2%	-6.9	-4.0%	-0.7	-11
COc1cccc(CN=c2c([N+](=O)[O-])nn(-c3ccccc3C)n2O)c1	4%	11%	-0.5	-0.6%	0.0	-3

# In another format: entries from further up.
# Every second line gives: gsp antagonist	gsp agonist	Menin MLL FP FL	ClpP mod	TRPML1 agonist	TRPML1 blocker
Cn1cnnc1SCC(=O)Nc1ccc2c(c1)CCC2
→ -1%	?	-0.3	-0.3%	-0.3	-5
CCc1ccc(NCCC(=O)c2ccc(Br)cc2)cc1
→ 10%	-7%	-0.9	-1.3%	0.8	13
CC(=O)Nc1ccc(S(=O)(=O)Nc2cccc(S(=O)(=O)N(C)c3ccccc3)c2)cc1
→ 6%	-6%	.	-0.4%	-1.0	-6
COc1cccc(CN=c2c([N+](=O)[O-])nn(-c3ccccc3C)n2O)c1
→ 4%	11%	-0.5	-0.6%	0.0	-3
COc1cc(/C=C2/C(=O)NN(c3ccc(F)cc3)C2=O)cc([N+](=O)[O-])c1O
→ -20%	-7%[15.4 µM]	0.1	.	1.2	36

# (continued)
Structure	gsp antagonist	gsp agonist	Menin MLL FP FL	ClpP mod	TRPML1 agonist	TRPML1 blocker
O=S(=O)(NCCc1csc(-c2ccccc2)n1)c1ccc2c(c1)OCCO2	-4%	-43%[inhibitor]	4.6	-3.7%	1.2	-10
O=C(O)c1cccn2c(=O)c3ccccc3nc12	-7%	-33%[inhibitor]	4.1	-14%	0.3	-9
Oc1c(Br)cc(/C=N/Nc2ccc(Cl)nn2)cc1Br	-16%	-20%[15.4 µM]	10	-1.3%	0.3	18
CCN(CC)S(=O)(=O)c1cc(OCC(N)=O)c(C)cc1Cl	14%	-43%[inhibitor]	-3.4	-1.4%	0.2	2
CCOC(=O)c1c(NC(=O)C[n+]2ccccc2)sc2c1CCCC2	5%	13%[15.4 µM]	-2.9	-2.5%	-0.9	2
COC(=O)c1cc(C#N)c(NCc2ccc(Cl)cc2Cl)nc1C	19%	-42%[inhibitor]	3.0	-5.9%	-0.4	9
Cc1ccc(C(=O)Nc2ccccc2[N+](=O)[O-])cc1S(=O)(=O)N1CCOCC1	0%	14%[15.4 µM]	-2.0	.	1.5	34
Cc1ccc(-n2ncc(C(=O)NCC3CCN(C4CCCC4)C3)c2C2CCN(C(=O)OC(C)(C)C)CC2)cc1 (configuration not stated)	-1%	-2%	6.4	-4.3%	0.5	15
Cc1c(C(=O)NC2CC2)oc2ccc(S(=O)(=O)N3CCCCCC3)cc12	-27%	20%	1.3	0.9%	1.5	1
COc1ccc(CCC(=O)Nc2ccc(S(=O)(=O)Nc3ncccn3)cc2)cc1	-8%	-20%	.	-3.8%	0.3	1
c1csc(-c2ncc3ccccn23)c1	-18%	-4%	2.2	32µM*	1.0	-8
CCCNC(=O)CN(c1cccc(F)c1)S(C)(=O)=O	5%	-3%	0.2	-0.9%	1.0	-13
CCCNc1nc(C)cc(-c2cc(-c3ccccc3)on2)n1	-7%	-3%	0.8	?	1.7	25
COCc1ccccc1Cn1cnc2c1c(=O)n(C)c(=O)n2C	-14%	14%	0.1	-1.4%	-0.8	7
O=C1c2ccccc2C(=O)N1CCc1csc(-c2cccc(F)c2)n1	5%	1%	2.7	-0.7%	1.3	-6
CCC(C(=O)N1CCOCC1)n1nc(C)n2c(cc3cc(C)ccc32)c1=O (configuration not stated)	1%	1%	-5.2	3.4%	-0.9	22
CCN(CC(=O)NCc1cccs1)S(=O)(=O)c1cc(NC(C)=O)ccc1OC	2%	-1%	.	-1.6%	4.6	8
Nc1c(-c2ccccc2)nnn1Cc1ccccc1	5%	17%	.	.	1.2	-9
CCSc1nnc(C)n1-c1ccc(C(=O)O)cc1	7%	-6%	0.2	0.1%	-0.5	9
Cc1cccc(C)c1NC(=O)CN(C)C(=O)COc1cccc2c1OC(C)(C)C2	-1%	23%[15.4 µM]	.	.	-1.0	10
COc1ccc(-c2csc(NC(=O)COC(=O)C3=COCCO3)n2)cc1	8%	-29%	2.8	-1.1%	1.1	-7
O=C(COc1ccc(Cl)cc1)N1CCN(c2ccc([N+](=O)[O-])c(N3CCOCC3)c2)CC1	-18%	?	-1.5	0.6%	-1.8	-10
O=C(O)c1cccc(-n2cnnn2)c1	5%	3%	9.6	-1.0%	-0.4	-4
O=C1C(Cl)=C(N2CCN(c3ccccc3[N+](=O)[O-])CC2)C(=O)c2ccccc21	-2%	-18%	-0.6	12%	-0.4	1
CCC(=C(c1ccc(O)cc1)c1ccc(OCCN(C)C)cc1)c1ccccc1	.	4%	.	-0.8%	0.1	-7
